# Screens deposited in PubChem by National Center for Advancing Translational Sciences (NCATS).
# Lassa entry inh – blocks Lassa virus binding to or entry into cells | Lassa virus pseudotype entry inhibition, cell reporter; control for the full effect not named in the record | Potency, µM (titrated, usually from 37.9 µM), for the others: at the top dose activity change, negative = inhibition, actives largely listed as inhibitors | 1.2% of 300,000 active; active means well fitted inhibition curve with a large enough effect; inconclusive means small, poorly fitted or top-dose-only effect, or effect the other way; inactive means flat fitted curve, though single readings scatter; tested in HEK293 cells; also: % is scaled to controls: 0 for no effect and ±100 for the full control effect; nearly all actives have a fitted effect of over 50% in size; luciferase read-out
# NS1 inh – inhibitors of influenza NS1 protein function; S. cerevisiae slowed by influenza A NS1, growth recovery by OD600; AID 2326; 0.4% of 270,000 active; Potency, µM (top dose mostly 46.1 µM), without a hit: top-dose activity, positive = more growth; active means well fitted rising curve with a large enough effect; inconclusive means small, poorly fitted or top-dose-only effect; inactive means no such curve, though single readings can be large or run the other way; also: nearly all actives have a fitted effect of over 50% in size
#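 Read-out: OD600 growth recovery of NS1-expressing budding yeast. Cells grown overnight at 30C in -URA glucose medium, washed, resuspended and diluted 1:100 in 2% galactose assay medium, pH 6.0. Same strain lacking NS1 served as positive control.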
# MARV entry inh – inhibitors of Marburg virus binding or cell entry; Marburg virus pseudotyped entry inhibition, cell reporter; control for the full effect not named in the record; about a third of the inactives were read at about 46 µM; AID 540276; Potency, µM (highest dose often 37.8 µM), inactives show at the highest dose activity change, negative = inhibition, hits mostly inhibitors; 1.8% of 300,000 active; active = well fitted inhibition curve with a large enough effect; inconclusive = small, poorly fitted or top-dose-only effect, or effect the other way; inactive = flat fitted curve, though single readings scatter; tested in HEK293 cells; about a fifth of its hits are not listed in these tables; also: % is scaled to controls: 0 for no effect and ±100 for the full control effect; luciferase read-out
# 2A StopGo – lowers the luciferase signal of an FMDV 2A StopGo reporter; human cells with a luciferase reporter of 2A StopGo recoding; control for the full effect not named in the record; Potency, µM (top dose mostly 57.9 µM), for the others: at the highest dose signal change, negative = less light; 1.2% of 410,000 active; active = well fitted falling curve with a large enough effect; inconclusive = small, poorly fitted or top-dose-only effect; inactive = no such curve, though single readings can be large or run the other way; tested in HEK293T cells; also: % is scaled to controls: 0 for no effect and ±100 for the full control effect; nearly all actives have a fitted effect of over 45% in size; luciferase light after 4 h
# Cruzain noTriton – cruzain (T. cruzi) inhibition without detergent | purified cruzain, Z-FR-AMC fluorescence, no detergent | Potency, µM, without a hit: max response, negative = inhibition, usual class: inhibitors | 2.3% of 200,000 active | AID 1476;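 also: plate controls were enzyme without inhibitor for no effect and buffer without enzyme for full effect; nearly all actives have a fitted effect of over 40% in size; top concentration of the series not given in the record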
# Target sequence (P25779 123-467 limits assumed): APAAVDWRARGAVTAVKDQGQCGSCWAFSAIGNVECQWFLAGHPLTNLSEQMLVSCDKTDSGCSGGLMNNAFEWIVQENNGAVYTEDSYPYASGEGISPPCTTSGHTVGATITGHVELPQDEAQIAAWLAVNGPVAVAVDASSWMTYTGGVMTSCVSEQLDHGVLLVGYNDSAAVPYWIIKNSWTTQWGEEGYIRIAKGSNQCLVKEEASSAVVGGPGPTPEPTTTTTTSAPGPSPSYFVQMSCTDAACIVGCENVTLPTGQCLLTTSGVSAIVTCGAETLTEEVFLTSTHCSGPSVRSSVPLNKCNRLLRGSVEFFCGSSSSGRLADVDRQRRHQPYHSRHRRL
#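 Purified cruzain at 1.5 nM, pre-incubated 15 min with compound at room temperature in 100 mM sodium acetate pH 5.5, 5 mM DTT, 0.00005% Triton X-100. Reaction started with 2 uM Z-FR-AMC; AMC fluorescence increase over 60 s gives rate.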
# SARS PLP yeast – SARS-CoV PLP inhibition in yeast; S. cerevisiae expressing SARS-CoV PLpro, growth rescue; control for the full effect not named in the record; Potency, µM (highest dose often 32.9 µM), for the others: top-dose activity, positive = growth rescue; 0.19% of 330,000 active; AID 485353; active means well fitted rising curve with a large enough effect; inconclusive means small, poorly fitted or top-dose-only effect; inactive means no such curve, though single readings can be large or run the other way; also: 0% is about no effect; nearly all actives have a fitted effect of over 55% in size; growth read by luminescence after 48 h
# RE007 growth inh – less growth of the S. pombe RE007 Vpr strain; S. pombe RE007 Vpr strain, BacTiter-Glo ATP luminescence, 24 h; control for the full effect not named in the record; Potency, µM (highest dose often 92.2 µM), for inactives: top-dose activity change, negative = less growth; 0.21% of 360,000 active; active = well fitted falling curve with a large enough effect; inconclusive = small, poorly fitted or top-dose-only effect; inactive = no such curve, though single readings can be large or run the other way;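 also: % is scaled to controls: 0 for no effect and ±100 for the full control effect; nearly all actives have a fitted effect of over 50% in size; the assay follows cell death caused by Vpr and the record does not say whether a fall means rescue or toxicity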
#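 Fission yeast RE007 carrying one integrated HIV-1 vpr copy, seeded at OD 0.01 in PMG+AL medium with 23 nL pinned compound. Grown 24 h at 30 degrees; viability read by BacTiter-Glo luminescence after 5 min.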
# Cruzain inh Det – cruzain (T. cruzi) inhibition with detergent; P25779; purified cruzain, Z-FR-AMC fluorescence, 0.01% Triton; Potency, µM, inactives show max response, negative = inhibition, hits mostly inhibitors; 0.43% of 200,000 active;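 also: plate controls were neutral wells for no effect and buffer without enzyme for full effect; nearly all actives have a fitted effect of over 40% in size; top concentration of the series not given in the record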
#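 Steps: dispense cruzain (1.5 nM final) in acetate buffer pH 5.5 with DTT and 0.01% Triton X-100; pin-transfer compounds; incubate 15 min RT; add Z-FR-AMC (2 uM final); read fluorescence every 30 s, using the 60 s intensity change.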
# Numbers without * were called inactive; u = inconclusive; x = no result given; [ ] = dose if it differs, or a comment. Unless noted, calls follow the shape of the dose curve; as a rule, active = well fitted curve in the direction sought with a large enough effect; inconclusive = small, poorly fitted or top-dose-only effect, or another doubt; inactive = no such curve, though single readings can be large; an effect the other way counts as inactive or inconclusive. Potency is read from the fitted curve at half-maximal effect.
SMILES,Lassa entry inh,NS1 inh,MARV entry inh,2A StopGo,Cruzain noTriton,SARS PLP yeast,RE007 growth inh,Cruzain inh Det
CCOC(=O)CSC1=Nc2ccccc2C2=NC(CCC(=O)NCc3ccc(OC)cc3)C(=O)N12 (stereo not given),15%[46.1 µM],x,x,-16%,-12%,x,x,-2.4%
O=c1c2oc3ccccc3c2ncn1Cc1ccc(Cl)cc1,1%,x,0%[46.1 µM],6%,x,1%,33%,x
CCOC(=O)N(CC)OC(=O)Nc1ccc(Cl)cc1,-3%,-2%,2%,x,5%,7%,9%,-0.5%
Cc1ccc(S(=O)(=O)c2nc(-c3cccs3)oc2N2CCC(C)CC2)cc1,-21%[46.1 µM],x,-18%[46.1 µM],44%[activator],3%,x,x,-9.4%
COc1ccc(C(=O)Nc2nnc(S(=O)(=O)N3CCCc4ccccc43)s2)cc1,14%[46.1 µM],x,x,43%[activator],6%,x,x,-2.9%
COc1ccc(NC(=O)c2cnc(SC)n2-c2ccc(F)cc2)c(OC)c1,u,-12%,13µM*,u,x,0%,-15%,x
O=C(Cc1ccc(Cl)cc1)NNS(=O)(=O)c1ccc([N+](=O)[O-])cc1,-2%,6%,u,-5%,-9%,u,x,0.5%
Cc1cc(C)cc(N(C(=O)CNC(=O)c2cccs2)C(C(=O)NC2CCCC2)c2cccnc2)c1 (stereo not given),16%,13%,u,x,-4%,5%,12%,-0.1%
CCN(CC)c1ccc(NC(=O)c2cccnc2)cc1,6%,2%,0%[46.1 µM],29%,-9%,x,5%,0.7%
O=C(Cn1nc(C(F)F)cc1C(F)F)N/N=C/c1ccc2c(c1)OCO2,-11%,8%,-17%,0%,-6%,3%,-3%,-4.6%
Cc1cc(F)ccc1S(=O)(=O)Nc1ccccc1C(=O)NCc1cccnc1,x,0%,-14%[46.1 µM],12%,x,1%,-15%,x
Cc1ccc(S(=O)(=O)C2(C(=O)N3CCCCC3C)CC2)cc1 (stereo not given),16%,1%,5%,19%,2%,3%,5%,-0.7%
COc1ccc(S(=O)(=O)N2CCCCCC2)cc1C(=O)NCc1ccco1,-19%[46.1 µM],x,-9%[46.1 µM],40%[activator],x,2%,27%,x
CCOc1ccc(NC(=O)CC(c2ccccc2)c2ccc(F)cc2)cc1 (stereo not given),14%,-7%,5%,-3%,20%,17%,-18%,-4.6%
N#Cc1c(Nc2ccccc2)c(/C=N/NCCO)c[nH]c1=O,-3%[46.1 µM],x,0%,-6%,x,1%,-5%,x
O=C(Nc1nc2ccccc2s1)c1cccc(S(=O)(=O)N2CCc3ccccc32)c1,-3%,13%,u,-19%,x,-1%,2%,x
Cc1ccc(OCC(O)CNC2CCCC2)c(C)c1 (stereo not given),x,6%,x,1%,x,-3%,-11%,x
COc1cc(CN2CCC(C)CC2)ccc1OCc1ccccc1,x,-2%,x,2%,x,-10%,-10%,x
O=C(O)CC1S/C(=N/N=C/C=C/c2ccccc2[N+](=O)[O-])NC1=O (stereo not given),-8%,13%,1%,-17%,4%,1%,6%,-4.9%
N#Cc1c2c(c(Nc3ccc(F)cc3)n3c1nc1ccccc13)CCCC2,0%,x,0%,-17%,x,x,-1%,x
CCC1(C)N=c2c(c(=O)n(C)c(=O)n2C)=NO1 (stereo not given),13%,-7%,14%[46.1 µM],-8%,-10%,-3%,-16%,-5.0%
CCc1ccc(N2CC(C)Cn3c2nc2c3c(=O)n(CCN3CCOCC3)c(=O)n2C)cc1 (stereo not given),-1%,u,u,-29%,8%,2%,-2%,7.7%
COc1ccc(-c2[nH]ncc2CN(C)Cc2cccnc2)c(OC)c1,12%[46.1 µM],-4%,1%[46.1 µM],-29%,x,0%,0%,x
CCN(CC(=O)Nc1c(F)cccc1F)C(=O)c1cc(S(=O)(=O)N(C)C)ccc1N1CCCC1,10%,x,-16%,5%,x,x,7%,x
CN(NC(=O)c1ccccc1)c1ncc(C(F)(F)F)cc1Cl,16%,-1%,8%[46.1 µM],-11%,x,0%,75%,x
CN1C(=O)CN=C(c2ccccc2Cl)c2cc(Br)ccc21,x,-21%,x,-23%,x,9%,7%,x
Cc1cc(NC(=O)c2ccc3c(c2)C(=O)N(c2cccc(C)c2C)C3=O)no1,3%,6%,6%,u,x,1%,-14%,x
CC(C)(C)C(=O)Nc1nnc(SCC(=O)Nc2nccs2)s1,u,15%,-17%,-20%,x,-4%,3%,x
COc1ccc(NC(=O)c2oc3ccccc3c2NC(=O)C2CCCCC2)c(OC)c1,26%[46.1 µM],x,8%[46.1 µM],3%,5%,x,x,0.9%
Cc1cccc(C(=O)NCC(=O)OCC(=O)c2ccc(C)s2)c1,-3%[46.1 µM],x,3%[46.1 µM],7%,x,0%,-9%,x
CC1(CCC(=O)N2CCCC(N3CCN(c4ccc(F)cc4)CC3)C2)CC1 (stereo not given),u,-19%,10%,u,x,-2%,-13%,x
Cc1cc(S(=O)(=O)Nc2ccc3cn[nH]c3c2)c(C)cc1Cl,u,1%,u,36%[activator],x,-3%,9%,x
COC(=O)c1c(NC(=O)C2CC(C)=C(C)CC2C(=O)O)sc2c1CCCCC2 (stereo not given),x,-2%,x,-16%,x,-4%,0%,x
S=C(Cc1ccccc1)N1CCOCC1,12%,x,12%,-15%,x,x,10%,x
O=C(Nc1cc(Cl)cc(Cl)c1)C(c1ccccc1)N1CCCCC1 (stereo not given),20%,-18%,6%,u,-2%,-8%,-14%,-4.5%
CCC(CC)C1C(C#N)=C(N)Oc2n[nH]c(-c3ccccc3)c21 (stereo not given),u,8%,u,x,5%,-4%,-13%,2.5%
Cc1ccc2c(c1)C(c1ccccc1)C(=O)O2 (stereo not given),-1%,14%,-20%,-24%,x,1%,16%,x
CNC(=O)Nc1ccccc1F,1%,3%,-2%,-18%,-1%,-1%,6%,2.4%
O=C(NCc1cccnc1)c1ccc([N+](=O)[O-])cc1,14%,x,-8%[46.1 µM],-16%,x,2%,-8%,x
Cc1cc(C(F)(F)F)nc(SCC(=O)Nc2nccs2)n1,28%[46.1 µM],-12%,-18%[46.1 µM],10%,x,-2%,14%,x
CCOc1ccc(-c2nc(-c3ccncc3)no2)cc1OCC,1%,-1%,8%,28%,25%,0%,-10%,-0.4%
CC(O)Cc1cn([C@@H](CCCCN)C(=O)N2CCNCC2)nn1 (stereo not given in full),x,-1%,x,-5%,x,1%,6%,x
O=C(CN1C(=O)COc2ccc(S(=O)(=O)N3CCCC3)cc21)Nc1cccc(F)c1,x,-1%,x,0%,x,-5%,-3%,x
COc1ccc(CSCC(=O)N/N=C/c2ccc(OCC(=O)NCc3ccco3)cc2)cc1,u,4%,u,u,-3%,6%,10%,-0.6%
CC(=O)NC1=NN(C(C)=O)C(C)(c2ccc(C)o2)S1 (stereo not given),-22%[46.1 µM],1%,5%[46.1 µM],20%,x,0%,-9%,x
COc1ccccc1NC(=S)N1CCC(NC(=O)c2ccco2)CC1,5%[46.1 µM],3%,-13%[46.1 µM],-4%,x,0%,24%,x
CCOC(=O)c1cc(-c2ccccc2)n(-c2cccc(C(=O)Nc3cccc(C)c3)c2)c1C,6%[46.1 µM],x,x,-13%,u,x,x,-0.9%
CC(NS(=O)(=O)CCNC(=O)c1ccccc1)c1ccccc1 (stereo not given),-12%,x,3%,2%,x,0%,16%,x
CCc1ccc(N2CC(C(=O)Nc3ccc(S(=O)(=O)Nc4ncccn4)cc3)CC2=O)cc1 (stereo not given),-1%,-9%,6%[46.1 µM],-4%,x,-2%,-5%,x
CC(C)OCCCNC1=C(Cl)C(=O)c2ccccc2C1=O,3%,-6%,u,24%,x,0%,u,x
Cc1cccc(OC(C)C(=O)N2CCC(c3nc4ccccc4o3)CC2)c1C (stereo not given),-4%[46.1 µM],x,7%[46.1 µM],0%,u,x,x,-10%
c1ccc(OCc2cc(-c3ccccc3)no2)cc1,3%[46.1 µM],x,u,31%[activator],x,0%,-2%,x
Cc1ccc(C2C(C#N)=C(N)Oc3n[nH]c(-c4cccnc4)c32)o1 (stereo not given),u,x,19%[46.1 µM],-6%,x,-1%,1%,x
O=C(NCc1ccccn1)C(F)(F)C(F)(F)C(=O)NCc1ccccn1,-14%,u,5%,-12%,-8%,-3%,6%,6.7%
CCN(CC)C(=O)c1sc2c(c1C)c(=O)n(Cc1ccccc1)c(=O)n2Cc1ccc(Cl)cc1,u,x,x,u,u,x,x,0.1%
CCCN1CCN(C(=S)NCc2ccc(Cl)cc2)CC1,-5%[46.1 µM],-5%,6%[46.1 µM],-1%,x,1%,-1%,x
O=C1C(Cc2cccc([N+](=O)[O-])c2)SC(=Nc2ccccc2)N1c1ccccc1 (stereo not given),-4%,-1%,u,-10%,-8%,26%,x,-0.5%
COc1ccccc1N1CCN(S(=O)(=O)c2cn(C)cn2)CC1,-10%[46.1 µM],1%,-2%[46.1 µM],-14%,x,7%,8%,x
CC(C)CCNC1c2ccccc2C(=O)N1Cc1ccccc1 (stereo not given),x,-14%,x,-3%,x,0%,-13%,x
Cc1cc(C(=O)NC2CCCc3c2cnn3-c2cccc(C)c2C)c(C)o1 (stereo not given),u,-11%,u,u,x,-3%,4%,x
# Further compounds.
SMILES,Lassa entry inh,NS1 inh,MARV entry inh,2A StopGo,Cruzain noTriton,SARS PLP yeast,RE007 growth inh,Cruzain inh Det
CC(c1ccon1)N(C)Cc1cn(Cc2ccccc2)nc1-c1ccc2c(c1)OCO2 (stereo not given),u,-8%,u,-7%,x,0%,-12%,x
COc1ccc(CCNC(=O)c2ccccc2NC(=O)C2=C(C)OCCS2)c(OC)c1,x,0%,x,-4%,x,0%,1%,x
Cc1sc2ncnc(N3CCN(S(=O)(=O)c4ccccc4)CC3)c2c1C,-12%,x,-9%,20µM*,x,-1%,-4%,x
COc1ccc(C(=O)Nc2ccc(S(=O)(=O)Nc3cc(C)nc(C)n3)cc2)cc1OC,9%[46.1 µM],5%,u,27%,x,1%,9%,x
CC(C)N(CCCNC(=O)C1CCN(C(=O)c2cc3sccc3n2C)CC1)Cc1ccccc1,x,-16%,x,-5%,x,-1%,-5%,x
